Compound activity as filed in PubChem BioAssay.
Menin MLL FP FL – inhibitors of human menin-MLL interaction, wild-type MLL peptide | Fluorescence polarization, fluorescein-MLL peptide displacement from menin | FP activity change, % at 61.4 µM | 290,000 tested, under 10 active | AID 1766; inconclusive = falling polarisation curve, or a change in total fluorescence; inactive = total fluorescence flat and polarisation flat or rising; no compound was filed as active; the % refers to the polarisation; negative = inhibition;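 further: % of control where 0% means no effect; inhibitors lower the polarisation; unlabelled MLL peptide was the positive control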
Sfp PPTase inh – Sfp phosphopantetheinyl transferase inhibition | Q9F4F7 | Biochemical Sfp PPTase activity, qHTS | Potency, µM, inactives show max response, negative = inhibition, hits mostly inhibitors | 310,000 tested, 3.5% active | AID 1490; active means well fitted inhibition curve with a large enough effect; inconclusive means small, poorly fitted or top-dose-only effect, or another doubt; inactive means no such curve, though single readings can be large or run the other way;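 further: the enzyme is Sfp with the accession as filed and its product quenches rhodamine fluorescence; potency means the concentration at half of the fitted maximal effect; 0% = enzyme reaction without inhibitor and -100% = no enzyme wells; top concentration of the series not given in the record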
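Fluorescence-quenching assay with 15 nM Sfp, 5 uM rhodamine-CoA and 12.5 uM BHQ-2-labelled ybbR peptide in pH 7.6 Hepes/MgCl2 buffer. Enzyme was pre-incubated with compound for 15 min at room temperature. Rate was taken from the 30-min fluorescence change (525/598 nm).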
Active calls of the source: *; u = inconclusive; & = joins results of further samples; ! = not confirmed by another sample; [ ] = remark or other dose. Only part of the results is shown (hit frequency here may not be typical).

The line under a structure holds: Menin MLL FP FL	Sfp PPTase inh
CC[C@@H](C(N)=O)N1CCCC1=O
→ -2.0	22%
CC1CCC2C(C)C(=O)OC3O[C@]4(C)CCC1[C@@]32OO4 (stereo partly specified)
→ 1.5	7%
C=C(CC1(CNP(=O)(c2ccccc2)c2ccccc2)CC1)c1ccccc1
→ -2.8	13%
CC(O)C(C)OC(=O)[C@@H]1C[C@@H]2c3cccc4c3c(cn4C(C)C)C[C@H]2N(C)C1 (stereo partly specified)
→ -16	u
O=P(c1ccccc1)(c1ccccc1)N1CC2(CC2)CC(O)(c2ccccc2)C1 (stereo unspecified)
→ 3.6	34%[activator]
CNC(C)C(O)c1ccccc1 (stereo unspecified)
→ 3.2	2%
COc1ccc(C2C([N+](=O)[O-])=C(N)Oc3c2c(=O)oc2ccccc32)cc1 (stereo unspecified)
→ 0.9	19%
Cc1nc(-c2ccc(-c3ccc(C(=O)N4CCc5cc6c(cc54)C4(CCN(C)CC4)CO6)cc3)c(C)c2)no1
→ u	63µM*
CCCCn1c(=O)c(C(=O)Nc2nc3ccccc3[nH]2)c(O)c2ccccc21
→ -0.9	4%
COc1cc2c(cc1-c1cc3cc4ccoc4cc3oc1=O)OCO2
→ 5.4	-55%
CO[C@@H](COC(N)=O)C1=C(N2CC2)C(=O)C(C)=C(N2CC2)C1=O
→ -6.0	-8%
CC(C)(O)[C@H]1O[C@@H]2CC[C@]3(C)[C@@]4(C)c5[nH]c6ccccc6c5C[C@@H]4CC[C@]3(O)C2=CC1=O
→ u	-20%
CCNC[C@H](O)c1cccc(O)c1
→ -1.5[24.8 µM]	18%
CC(=O)OC1CC[C@@]2(C)C3CC[C@]4(C)C(=O)CCC4C3CC[C@H]2C1 (stereo partly specified)
→ -3.5	-30%
NC(=NCCC[C@H](N)C(=O)O)N[N+](=O)[O-]
→ 1.0&-1.8	7%
NC(=O)c1ccc(N=Nc2c(O)[nH]c(=O)[nH]c2=O)cc1
→ u	14%
CCCn1cc2c3c(cccc31)C1CC(C)CN(C)C1C2 (stereo unspecified)
→ u	10%
CN1[C@@H]2CC[C@H]1CC(O[C@@H](c1ccccc1)c1ccc(Cl)cc1)C2 (stereo partly specified)
→ 6.2	u
CNc1ccc2oc(C[C@@H]3OC4(CC[C@@H]3C)O[C@H](C(C)C(=O)c3ccc[nH]3)[C@H](C)C[C@H]4C)nc2c1C(=O)O (stereo partly specified)
→ 3.5	17%
CCCN1CCc2cc(O)cc3c2C1Cc1ccc(O)c(O)c1-3 (stereo unspecified)
→ -0.6	35µM*
NCCc1ccccn1
→ -0.4	-5%
CC(=O)OC1CC[C@@]2(C)C(=CC[C@H]3[C@@H]4CC[C@H](C(C)=O)[C@@]4(C)CC[C@@H]32)C1 (stereo partly specified)
→ u	5%
O=C1NCN(c2ccccc2)C12CCN(C[C@H]1COc3ccccc3O1)CC2
→ u	3%
C[C@H](N)[C@H](O)c1ccc(O)c(O)c1
→ 1.0[24.8 µM]	35µM*
COC(=O)c1cc2c(cn1)[nH]c1ccccc12
→ 5.4	-7%
CC(CCC(=O)O)C1CCC2C3C(=O)CC4CC(=O)CC[C@@]4(C)C3CC(=O)[C@]12C (stereo partly specified)
→ 0.7	8%
[N-]=[N+]=CC(=O)OCC(N)C(=O)O (stereo unspecified)
→ -13	-9%
CON(C)C(=O)Nc1ccc(Br)cc1
→ u	8%
C[C@@H]1Cc2c(Cl)cc(C(=O)N[C@@H](Cc3ccccc3)C(=O)O)c(O)c2C(=O)O1
→ -1.2	2%
CCCC(C)(COC(N)=O)COC(=O)NC1CC1 (stereo unspecified)
→ 1.6	21%
CC(=O)OC1CCC23C(=O)OC45CCC(C6=CC(=O)OC6)C4(C)CCC2C5CCC3(O)C1 (stereo unspecified)
→ -0.6	5%
CN1C(=O)[C@@H](NC(=O)c2cc3ccccc3[nH]2)N=C(c2ccccc2)c2ccccc21
→ 0.2	11%
CC1CC2CCC(O2)C(C)C(=O)OC(C)CC2CCC(O2)C(C)C(=O)OC(C)CC2CCC(O2)C(C)C(=O)OC(C)CC2CCC(O2)C(C)C(=O)O1 (stereo unspecified)
→ 1.1	8%
COc1cc(OC2CCN(C(C)=O)CC2)ccc1C(=O)N1CCC(N2C(=O)OCc3ccccc32)CC1
→ 2.2	17%
Nc1ncnc2c1ncn2[C@@H]1O[C@H](COP(=O)(O)OP(=O)(O)OP(=O)(O)O)[C@H]2OC3(O[C@H]21)C([N+](=O)[O-])=CC(=[N+]([O-])[O-])C=C3[N+](=O)[O-] (stereo partly specified)
→ u	8.9µM*
CCN(CC)c1ncnc2c1ncn2[C@@H]1O[C@@H](COP(=O)(O)OP(=O)(O)C(Br)(Br)P(=O)(O)O)[C@H](O)[C@H]1O
→ 40[activator]	-15%
O=C1CCCC2[C@@H]3CCCN4CCC[C@@H](CN12)C34 (stereo partly specified)
→ u	-12%
CC#C[C@]1(O)CC[C@H]2C3C=C(C)C4=CC(=O)C=C[C@]4(C)[C@H]3[C@@H](O)C[C@@]21C (stereo partly specified)
→ 3.3	2%
O=C1CCC[C@H]2[C@H]3CCCN4CCCC(=CN12)[C@@H]34
→ 0.1	-17%
CCCCC/C=C\C/C=C\C/C=C\C/C=C\CCCCCC(=O)NCCO
→ 2.3&1.0&0.6	25µM*!
NC(=O)O
→ -4.4	12%
C#C[C@]1(O)CC[C@H]2[C@@H]3CCC4=CC(=O)CCC4=C3C=C[C@@]21CC
→ 4.5	14%
C=CC1CN2CCC1CC2C(OC(=O)OCC)c1ccnc2ccc(OC)cc12 (stereo unspecified)
→ 2.3	12%
O=c1ccc2[nH]cc(C3=CCNCC3)c2[nH]1
→ u	-10%
O=CN1CCCCC1C1CC[C@H]2CCCCN2C1 (stereo partly specified)
→ u	-15%
C=CCN1C[C@H](C)N([C@H](c2ccc(C(=O)N(CC)CC)cc2)c2cccc(OC)c2)C[C@H]1C
→ u	14%
CN(C)c1ccc(/C=C2\CCCN=C2c2cccnc2)cc1
→ u	-14%
COc1ccc(C[C@@H]2NC[C@H](O)[C@@H]2OC(C)=O)cc1
→ -2.4[24.8 µM]	9%
C[C@@H]1O[C@H](O[C@@H]2C[C@@H](O)[C@]3(CO)[C@H]4[C@H](O)C[C@]5(C)[C@@H](C6=CC(=O)OC6)CC[C@@]5(O)[C@@H]4CC[C@]3(O)C2)[C@@H](O)[C@H](O)[C@H]1O
→ -2.7	-5%
OC[C@@H]1CCCN2CCCC[C@@H]12
→ -22	2%
Cc1ccc(-n2nc(C)c(C3C(C#N)=C(N)Oc4c3c(=O)oc3ccccc43)c2Cl)cc1 (stereo unspecified)
→ 0.4	0%
CN1CCc2cc3c(c4c2[C@H]1Cc1ccccc1-4)OCO3
→ -19	6%
COC1=CC(=O)O[C@H](/C=C/c2ccc3c(c2)OCO3)C1
→ 1.8	18%
NC[C@H](O)c1ccc(O)cc1
→ 7.2[24.8 µM]	5%
O=C(O)c1sc2cc(Cl)ccc2c1Cl
→ 4.1	28%
CC(C)[C@]1(O)[C@@H](OC(=O)c2ccc[nH]2)[C@@]2(O)[C@@]3(C)C[C@]4(O)O[C@@]5([C@H](O)[C@@H](C)CC[C@]35O)[C@@]2(O)C41C
→ 7.6&-1.7	17%&18%&14%&12%
CC(=O)N1CC2CC(C1)c1cccc(=O)n1C2 (stereo unspecified)
→ u	6%
O=c1[nH]c(=O)n(Cl)c(=O)n1Cl
→ -1.2	4%
COc1cc(-c2oc3cc(O)cc(O)c3c(=O)c2O)ccc1O
→ u	3%&-4%
O=C(O)C1CN(CP(=O)(O)O)CCN1 (stereo unspecified)
→ 1.9	0%

Some of the entries so far, as labelled records.
> CN1[C@@H]2CC[C@H]1CC(O[C@@H](c1ccccc1)c1ccc(Cl)cc1)C2 (stereo partly specified)
  Menin MLL FP FL: 6.2
  Sfp PPTase inh: u
> CNc1ccc2oc(C[C@@H]3OC4(CC[C@@H]3C)O[C@H](C(C)C(=O)c3ccc[nH]3)[C@H](C)C[C@H]4C)nc2c1C(=O)O (stereo partly specified)
  Menin MLL FP FL: 3.5
  Sfp PPTase inh: 17%
> CCCN1CCc2cc(O)cc3c2C1Cc1ccc(O)c(O)c1-3 (stereo unspecified)
  Menin MLL FP FL: -0.6
  Sfp PPTase inh: 35µM*

(continued)
The line under a structure holds: Menin MLL FP FL	Sfp PPTase inh
CCC(C)C(=O)OC1C(O)C2C(CN3CC(C)CCC3[C@]2(C)O)C2C[C@]34O[C@@]5(O)C(OC(=O)C(C)(O)C(C)O)CCC3(C)C5C(OC(C)=O)C(OC(C)=O)C4[C@@]21O (stereo partly specified)
→ 1.3	-3%
CCCC(C)C1(CC)C(=O)NC(=S)NC1=O (stereo unspecified)
→ 4.6	1%
C[C@]12[C@H](O)CC3C(CC[C@@H]4C[C@@H](O)CC[C@]34C)[C@@]1(O)CC[C@@H]2C1=CC(=O)OC1 (stereo partly specified)
→ -24	5%
CCN(CC)CCO[C@H]1CC[C@@]2(C)C(=CC[C@@H]3[C@H]2CC[C@]2(C)C(=O)CC[C@H]32)C1
→ -8.9&-7.6	10%&-13%
C#CCN1CC(=O)N(COC(=O)[C@@H]2[C@@H](C=C(C)C)C2(C)C)C1=O
→ 2.6	12%
COc1ccc2c(c1)c(CCN1CCOCC1)c(C)n2C(=O)c1cccc(Cl)c1Cl
→ -2.3	u
c1ccc(CCCCN2CCC(c3ccccc3)CC2)cc1
→ -2.0	3%&-6%
Cc1cc2nc3c(=O)[nH]c(=O)nc-3n(C[C@H](O)[C@H](O)[C@H](O)COP(=O)(O)OP(=O)(O)OC[C@H]3O[C@@H](n4cnc5c(N)ncnc54)[C@H](O)[C@@H]3O)c2cc1C
→ u	1%
Cc1ncc(CN2CC=C(c3ccccc3)CC2)c(N)n1
→ -0.6	-18%
Clc1cncc(N2CCNCC2)n1
→ u	-10%&11%
CCN1C[C@@]2(COC)CC[C@H](OC)[C@]34[C@@H]1[C@]1(OCO[C@@]15C[C@@H](OC)C1C[C@H]3[C@H]5[C@@H]1OC)[C@H](O)[C@@H]24
→ -1.6[24.8 µM]	5%
C[C@H]1[C@@H](O)[C@@H](C)/C=C\C=CCC\C=C/C=C\C=C/C=C[C@@H](O[C@H]2O[C@@H](C)[C@@H](O)[C@@H](N)[C@@H]2O)C[C@@H]2O[C@@](O)(C[C@@H](O)[C@H]2C(=O)O)C[C@@H](O)[C@@H](O)CC[C@@H](O)C[C@@H](O)C[C@@H](O)CC(=O)O[C@H]1C
→ 11[24.8 µM]	18%
O=C1NC(=S)N(Cc2ccco2)C(=O)/C1=C\c1cccs1
→ u	20µM*
CCC1CN2CCC1CC2C(Oc1cc2ccccc2c2ccccc12)c1ccnc2ccc(O)cc12 (stereo unspecified)
→ -1.2[11.7 µM]	-20%
CC[C@@H]1[C@@H]2C[C@H]3[C@H]4N(C)c5ccccc5[C@@]45C[C@@H]([C@@H]2[C@@H]5O)N3[C@H]1O
→ -1.4[24.8 µM]	14%
CN1[C@@H]2CC[C@H]1CC(OC(=O)N1Cc3ccccc3NC1=O)C2 (stereo partly specified)
→ 1.5	6%
N[C@@H](Cn1cc(I)c(=O)[nH]c1=O)C(=O)O
→ 4.8&-5.2	u
C1=C(c2c[nH]c3ccccc23)CCNC1
→ 27	-13%
CCc1ccc(N2C(=O)NC(=O)/C(=C/c3ccsc3)C2=O)cc1
→ u	50µM*
O=P(O)(O)C(Cl)(Cl)P(=O)(O)O
→ -4.7	24%
CN1CCCC(=C(c2cccs2)c2cccs2)C1
→ 5.6	4%
OCCN(CCO)CCO
→ 1.6&2.7	-10%&6%
O=C1C2CC=CCC2C(=O)N1SC(Cl)(Cl)Cl (stereo unspecified)
→ -0.2	6.3µM*
CC(=O)OC1CC[C@]2(C)C(CCC3C2CC[C@]2(C)C(C4=CC(=O)OC4)C(OC(C)=O)CC32O)C1 (stereo partly specified)
→ 1.6	-9%
CCCCCCC(C)(C)c1cc(OC)c2c(c1)OC(C)(C)[C@@H]1CC=C(C)C[C@@H]21
→ 0.7	34%[activator]
CC1CC(C)C(=O)[C@H](C(O)CC2CC(=O)NC(=O)C2)C1 (stereo partly specified)
→ -0.5	21%
CN1C(=O)C(O)N=C(c2ccccc2)c2cc(Cl)ccc21 (stereo unspecified)
→ 0.1	-9%
C=CCN
→ -0.5	8%
COC([CH2][Hg])CNC(=O)c1ccccc1OCC(=O)O (stereo unspecified)
→ 2.7	0.4µM*
O=c1[nH]c2sccc2c2ccccc12
→ -0.3	5%
CC(C)C[C@H]1C(=O)N2CCC[C@H]2[C@]2(O)O[C@](NC(=O)[C@@H]3C=C4c5cccc6[nH]c(Br)c(c56)C[C@H]4N(C)C3)(C(C)C)C(=O)N12
→ -4.4	-4%
C=CCSSCC=C
→ 2.6	-27%

Exported with each value named: entries from further up
CCCC(C)C1(CC)C(=O)NC(=S)NC1=O (stereo unspecified)
- Menin MLL FP FL = 4.6
- Sfp PPTase inh = 1%
C[C@]12[C@H](O)CC3C(CC[C@@H]4C[C@@H](O)CC[C@]34C)[C@@]1(O)CC[C@@H]2C1=CC(=O)OC1 (stereo partly specified)
- Menin MLL FP FL = -24
- Sfp PPTase inh = 5%
CCN(CC)CCO[C@H]1CC[C@@]2(C)C(=CC[C@@H]3[C@H]2CC[C@]2(C)C(=O)CC[C@H]32)C1
- Menin MLL FP FL = -8.9&-7.6
- Sfp PPTase inh = 10%&-13%
